Source: PubChem (National Center for Advancing Translational Sciences (NCATS))
gsp antagonist = qHTS for Antagonists of gsp, the Etiologic Mutation Responsible for Fibrous Dysplasia/McCune-Albright Syndrome: qHTS | AID 624288, 2012 | 340,000 compounds, 0.4% hits | Potency, µM (top dose mostly 76.9 µM), without a hit: top-dose activity change, negative = inhibition, hits mostly inhibitors | gsp-mutant cells, cAMP HTRF, 30 min; control for the full effect not named in the record; active = falling curve of any shape with a large fitted effect; inconclusive = falling curve, mostly with a smaller effect; inactive = flat or rising curve; cell line not stated here;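 also: intracellular cAMP measured with PDE inhibitor Ro 20-1724 present during compound exposure; potency is read from the fitted curve at half-maximal effect; % is scaled to controls: 0 for no effect and ±100 for the full control effect; nearly all actives have a fitted effect of over 65% in size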
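Measurement of cellular cAMP by homogeneous time-resolved fluorescence following a 30 min compound exposure at 37C. The PDE inhibitor […] was present throughout; the assay buffer was DPBS with 0.05% BSA and 0.005% Tween 20.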
Sfp PPTase inh = qHTS Assay for Inhibitors of Bacillus subtilis Sfp phosphopantetheinyl transferase (PPTase). 310,000 compounds, 3.5% hits. AID 1490, 2009. Potency, µM, without a hit: max response, negative = inhibition, usual class: inhibitors. Biochemical Sfp PPTase activity, qHTS. 4'-phosphopantetheinyl transferase ffp (Bacillus subtilis), Q9F4F7; active = well fitted inhibition curve with a large enough effect; inconclusive = small, poorly fitted or top-dose-only effect, or another doubt; inactive = no such curve, though single readings can be large or run the other way;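 also: the enzyme is Sfp with the accession as filed and its product quenches rhodamine fluorescence; potency is read from the fitted curve at half-maximal effect; 0% = enzyme reaction without inhibitor and -100% = no enzyme wells; top concentration of the series not given in the record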
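Compounds were incubated with enzyme (final 15 nM) for 15 min at room temperature before substrate addition started the reaction. Fluorescence at 525 nm excitation, 598 nm emission was recorded immediately and after 30 minutes.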
D2 potentiator = Beta-Arrestin HTS for Positive Allosteric Modulators of the Human D2 Dopamine Receptor: Potentiators; DiscoveRx D2 beta-arrestin cells, luminescence, 90 min; 100% = 57 uM dopamine signal; AID 624464, 2012; D(2) dopamine receptor (Homo sapiens), P14416; potentiation, % (no concentration beside the values); 360,000 compounds, 0.23% hits; active = potentiation of 50% or more; inconclusive = 30% to 50%; inactive = 30% or less;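 also: compound concentration not given in the record; tested on top of an EC20 dose of dopamine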
Target sequence (P14416 whole entry, looked up): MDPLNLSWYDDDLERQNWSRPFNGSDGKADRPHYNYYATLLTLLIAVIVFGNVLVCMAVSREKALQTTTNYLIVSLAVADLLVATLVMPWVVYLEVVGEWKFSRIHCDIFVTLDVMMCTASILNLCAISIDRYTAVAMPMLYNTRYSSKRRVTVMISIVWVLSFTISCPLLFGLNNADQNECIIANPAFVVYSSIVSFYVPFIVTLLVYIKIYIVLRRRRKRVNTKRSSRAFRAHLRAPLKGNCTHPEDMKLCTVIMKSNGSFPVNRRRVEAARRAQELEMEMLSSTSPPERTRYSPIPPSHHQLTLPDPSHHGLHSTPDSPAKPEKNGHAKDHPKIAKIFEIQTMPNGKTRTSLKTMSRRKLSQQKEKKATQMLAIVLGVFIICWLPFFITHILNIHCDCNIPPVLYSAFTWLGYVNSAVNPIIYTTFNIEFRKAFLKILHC
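PathHunter beta-arrestin assay in DiscoveRx D2 cells. Compounds were added with an EC20 of dopamine (50 nM final) for 90 min at 37 deg C. Luminescence was read 1 h after detection reagent, with 57 uM dopamine as the EC100 control.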
Menin-MLL FL inh = qHTS Assay for Inhibitors Targeting the Menin-MLL Interaction in MLL Related Leukemias: Competition With Fluorescein Labeled MLL-derived Peptide; Fluorescence polarization, fluorescein-MLL peptide displacement from menin; FP activity change, % at 61.4 µM; 290,000 tested, under 10 active; inconclusive = falling polarisation curve, or a change in total fluorescence; inactive = total fluorescence flat and polarisation flat or rising; no compound was filed as active; the % refers to the polarisation; negative = inhibition;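 also: % of control where 0% means no effect; inhibitors lower the polarisation; unlabelled MLL peptide was the positive control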
TRPV1 PAM = HTS Assay for Compounds that Act as Potentiators of the Vanilloid Receptor 1. Transient receptor potential cation channel subfamily V member 1 (Homo sapiens), Q8NER1. TRPV1-expressing cells, Fluo-8 calcium influx, capsaicin EC20 potentiation; host cell line not named in the record; control for the full effect not named in the record. potentiation, % at 8.33 µM. 320,000 compounds, 0.02% hits; active means potentiation above 80%; inconclusive means 30% to 80%; inactive means below 30%; also: 0% is about no effect
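Fluo-8 calcium influx in TRPV1-expressing cells, kinetic read (ex 480/em 520 nm). Compound added and read 3 min for agonist activity, followed by capsaicin at EC20 final and 2 min further read for enhancement.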
gsp agonist = qHTS for Agonist of gsp, the Etiologic Mutation Responsible for Fibrous Dysplasia/McCune-Albright Syndrome: qHTS; Potency, µM (doses to about 76.9 µM), without a hit: at the top dose activation (cAMP increase), usual class: activators; 340,000 compounds, 0.13% hits; AID 624287, 2012; gsp mutant cells, cAMP HTRF, 30 min; control for the full effect not named in the record; active = well fitted activation curve with a large enough effect; inconclusive = small, poorly fitted or top-dose-only effect, or another doubt; inactive = no such curve, though single readings can be large or run the other way; cell line not stated here;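 also: phosphodiesterase inhibitor Ro 20-1724 added with compounds to block cAMP breakdown; potency is read from the fitted curve at half-maximal effect; nearly all actives have a fitted effect of over 60% in size; about a fifth of the inactives were tested at one dose only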
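Cells stably selected in G418 were plated at 2000/well, grown 16-24 hr, then given compounds in DMSO with the PDE inhibitor […] (300 uM solution added) for 30 min at 37C; cAMP was read by HTRF.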
ClpP mod = qHTS Assay for Activators of ClpP; ATP-dependent Clp protease proteolytic subunit (Bacillus subtilis (strain 168)), P80244; purified B. subtilis ClpP, FRET peptide cleavage, 20 min; Potency, µM (titrated, usually from 57.5 µM), for the others: at the top dose activity change, negative = active; 340,000 compounds, 1.9% hits; active = well fitted falling curve with a large enough effect; inconclusive = small, poorly fitted or top-dose-only effect; inactive = no such curve, though single readings can be large or run the other way; also: potency is read from the fitted curve at half-maximal effect; the source files actives as falling curves though it sought activators and does not explain the sign; nearly all actives have a fitted effect of over 65% in size; many hits overshoot -100%
Target sequence (P80244 whole entry, looked up): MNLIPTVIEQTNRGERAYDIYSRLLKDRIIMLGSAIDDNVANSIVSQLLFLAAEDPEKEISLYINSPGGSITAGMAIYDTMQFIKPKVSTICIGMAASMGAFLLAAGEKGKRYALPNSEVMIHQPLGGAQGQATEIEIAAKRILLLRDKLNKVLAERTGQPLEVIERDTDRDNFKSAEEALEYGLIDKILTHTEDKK
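ClpP 10 microg/mL final, pH 8 Tris/KCl buffer with BSA, glycerol, Tween-20; compound pinned in; FRET-FV substrate; RT 20 min; Ex320/Em430; ΔFRET vs ADEP 5.8 microM, DMSO, no enzyme.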
Numbers without * were called inactive; ? = inconclusive; . = not tested or not shown; & = joins results of further samples; [ ] = another dose, or the depositor's remark.

SMILES	gsp antagonist	Sfp PPTase inh	D2 potentiator	Menin-MLL FL inh	TRPV1 PAM	gsp agonist	ClpP mod
COc1ccc(/C=N/Nc2ncnc3sc4c(c23)CCCC4)cc1O	-19%	-17%	?	.	-16	5%	-1.7%
O=C(COC(=O)c1cc(Br)ccc1O)Nc1ccc2c(c1)OCCO2	-7%	.	-2	.	-17	-21%[15.4 µM]	.
O=C(/C=C/c1ccc(O)c(O)c1)NC(=O)c1ccccc1O	-24%	-12%&-6%	-27	?	9	.	-3.5%
CCOC(=O)c1c(NC(=O)c2cc(-c3ccc(O)cc3)on2)sc(C(C)=O)c1C	3%	-29%	1	3.3	4	1%	-0.1%
CCOc1ccccc1C=NNC(=O)c1cccc2ccccc12	-6%	.	-17	.	.	2%	-3.0%
C=CC[C@@H](CC(=O)N[C@@H](CO)Cc1ccccc1)C(=O)N[C@@H](COC(=O)[C@@H](CC=C)Cc1ccc(F)cc1)Cc1ccccc1	3%	.	4	.	.	.	-1.6%
COc1ccc(S(=O)(=O)N2CCOCC2)cc1NC(=O)Cc1sc(C)nc1-c1ccc(F)cc1	13%	.	-13	.	-7	12%	-5.2%
CC1(C)O[C@@H]2[C@H](O1)[C@@H](CO)O[C@H]2n1c(N2CCCCC2)nc2c(N)ncnc21	5%	.	0	.	28	30%	-0.8%
NC(=O)[C@H]1CC2(CC(c3cccc(NC(=O)[C@H]4CCC(=O)N4)c3)=NO2)CN1C(=O)CC(c1ccccc1)c1ccccc1 (stereo not given in full)	3%	3%	-9	2.7	?	26%	-1.7%
Cn1cccc1Cc1nnc(SCC(=O)NCCc2ccccc2)n1-c1ccc(F)cc1	-5%	-2%	-3	5.8	.	-7%	13%
CCN(CC(=O)Nc1c(F)cccc1F)C(=O)c1cc2ccccc2oc1=O	5%	.	-1	.	15	9%[15.4 µM]	.
O=C(CNCCc1ccccc1)Nc1ccc(C(=O)N2CCCCC2)cc1	1%	-17%	-11	1.2	4	-9%	.
Cc1cccc(CC(=O)Nc2cc(C)c3c(=O)oc4ccccc4c3n2)c1	9%	-5%	0	3.6	18	-12%	?
O=C(O)/C=C/c1cn(Cc2ccccc2Cl)nc1-c1ccccc1	?	-19%	-1	0.2	-5	-12%	1.9%
CCCCC1=CC2=CC(=O)C(C)(OC(=O)CC)C(=O)C2=CN1Cc1ccco1 (stereo not given)	-20%	?	-88	-2.4[11.7 µM]	16	.	0.6%
CCOc1ccc2nc(NCCCO)[nH]c2c1	-2%	0%	-6	2.0	-10	9%	-3.7%
O=C(NCCCc1ccccc1)C(=O)NCC1OCCN1S(=O)(=O)c1ccc(F)cc1 (stereo not given)	-6%	9%	-15	.	-10	-23%	0.7%
O=C(OCc1nc2scc(-c3ccccc3)c2c(=O)[nH]1)c1ccco1	2%	.	0	.	18	-13%	-0.6%
CC(C)(Oc1ccc(Cl)cc1)C(=O)N1CCC(C(N)=O)CC1	1%	-9%	0	1.0	-5	-30%	.
CN(CCc1ccccc1)C(=O)c1ccc(NC(=O)Cc2ccc(NC(=O)C3CCCN(C(=O)CCc4ccccc4)C3)cc2)cc1 (stereo not given)	-2%	.	-3	.	.	.	0.4%
Cc1ccc2cc(C)c(SCC(=O)NCc3ccco3)nc2c1	-16%	-31%	-7	-1.4	-6	2%[15.4 µM]	.
Cc1ccc2c(c1)nnn2C1CCN(CC(=O)N(c2ccccc2)c2ccccc2)CC1	?	-3%	-24	-0.4	7	28%	-12%
Cc1nnc(N(Cc2ccccc2)C(=O)c2cnccn2)s1	-2%	16%	12	2.4	3	2%	-2.2%
COc1ccc(/C=C/C(=O)N2CCN(S(=O)(=O)c3ccccc3Br)CC2)cc1OC	-23%	.	0	.	.	0%	-12%
O=C1NC(=Nc2ccccc2)S/C1=C/c1cccs1	-9%	6%	-6	-0.1	-22	-8%	0.9%
CCN(C(=O)Cn1nc(C)c([N+](=O)[O-])c1C)C1CCS(=O)(=O)C1 (stereo not given)	11%	.	26	.	-3	-6%[15.4 µM]	.
CCOC(=O)[C@H]1[C@H]2COc3ccc(Br)cc3[C@@H]2N2C(=O)N(c3ccc(F)cc3)C(=O)[C@@]12C	-11%	.	1	.	.	-16%	0.3%
CN1CCN(C(=O)C2=C[C@@H](c3ccccc3)C[C@@H](OCCCCO)O2)CC1	6%	-7%	-9	2.8	5	10%	-3.0%
O=C1C=C(c2cc3ccccc3s2)C[C@@H](c2ccc(Cl)cc2)C1	-15%	.	-4	.	.	9%	0.6%
Cc1cc(C)n(-c2nnc(C)n2/N=C/c2ccco2)n1	1%	12%	-1	-3.2	-6	3%	-3.2%
Cc1cc(NC(=O)COC(=O)CCS(=O)(=O)c2ccc(Cl)cc2)no1	-9%	24%	-15	-8.0	-2	-1%[15.4 µM]	1.2%
O=C(COC(=O)c1cccs1)Nc1cccc(S(=O)(=O)NC2=NCCCCC2)c1	1%	5%	16	2.5	-4	-44%[inhibitor]	0.4%
O=C(c1ccccc1-c1ccccc1)N1CCCCC1	8%	9%	-4	-4.8	2	-23%	.
Oc1ccc(C=NC2CCCCC2)c(O)c1	-7%	-14%	0	3.9	9	11%	.
CCOc1ccc(N2CC(C(=O)NCCc3ccccc3)CC2=O)cc1 (stereo not given)	-8%	14%	-9	.	-13	-2%[15.4 µM]	-3.5%
N/C(CN1CCSCC1)=N\OCc1c(F)cccc1Cl	18%	-4%	-1	3.4	-19	-1%[15.4 µM]	.
CN(N=Nc1ccc([N+](=O)[O-])cc1)c1ccccc1	8%	-9%	1	?	1	-19%	2.9%
CCn1c(=O)c(C(=O)NCc2ccccc2)c(O)c2ccccc21	25%	-9%	-4	0.7	7	12%	-24%
COc1ccc(OC)c(C2C(C#N)=C(N)Oc3cc(N)ccc32)c1 (stereo not given)	16%	-9%	-3	4.6	0	-11%	-1.5%
COc1ccc(C2C(C(=O)Nc3cc(C)on3)c3ccccc3C(=O)N2C)cc1OC (stereo not given)	3%	1%	8	-1.5	1	-33%	1.8%
NC(=O)CCN(Cc1ccccc1)S(=O)(=O)c1ccccc1	-3%	30%[activator]	8	1.9	0	-2%	0.0%
COc1ccccc1OCc1ccc(C(=O)N2CCN(C(=O)c3ccco3)CC2)cc1	-9%	-23%	-8	0.8	9	-10%	-3.0%
Cc1c(C(=O)NCCc2ccccc2)oc2ccc(S(=O)(=O)N3CCOCC3)cc12	8%	7%	1	3.1	12	-8%	-0.9%
Cc1cc(Cl)ccc1C(=O)C1CCCN(C(=O)c2cc(C(C)C)no2)C1 (stereo not given)	-23%	5%	-13	-3.3	-11	-70%[inhibitor]	-0.6%
CCCCNC(=O)C1CC(=O)N(c2ccc(OC)cc2)C1c1ccc(OC)cc1 (stereo not given)	-2%	7%	-10	-0.2	13	-45%[inhibitor]	-0.2%
O=C(COC(=O)COc1ccccc1F)Nc1ccc2c(c1)OCO2	5%	.	-2	.	-10	9%	-0.4%
COc1ccc(NC(=O)CCN2C(=O)C3CC=C(Cl)CC3C2=O)cc1 (stereo not given)	13%	11%	1	3.5	-23	-17%	0.9%
CCCCn1c(N)c(N(C)C(=O)C2CC(=O)N(Cc3ccco3)C2)c(=O)[nH]c1=O (stereo not given)	3%	.	-17	.	.	2%[15.4 µM]	1.9%
CN(C)c1ccc(/C=C(\Cl)c2nc3ccccc3s2)cc1	13%	?	-1	?	-4	21%	1.2%
Cc1ccc(CNS(=O)(=O)N(C)C)cc1	-8%	4%	-14	0.1	-19	-26%	0.8%
CCOC(=O)C1(CCc2ccccc2)CCN(C(=O)c2cc(C)nc(C)n2)CC1	4%	14%	-1	0.5	3	-8%[15.4 µM]	.
O=C1COc2ccc(C(=O)COC(=O)c3ccc([N+](=O)[O-])cc3Cl)cc2N1	-26%	.	51*	.	-2	-7%	3.2%
Cc1cc2nc(CCN3CCOCC3)n(S(=O)(=O)c3ccc(C(C)(C)C)cc3)c2cc1C	12%	2%	-2	6.0	4	-65%[inhibitor]	-1.5%
Cc1c(C(=O)N(Cc2ccccc2)C(C)C)cnn1-c1ccccc1	-7%	27%	1	3.6	-9	-1%	0.4%
N#CC(C(=O)NCCc1ccccc1)c1nc2ccccc2nc1N1CCOCC1 (stereo not given)	4%	14%	-2	?	-11	-3%	0.6%
COc1cccc2cc(C(=O)NCCN3CCOCC3)c(=O)oc12	-3%	16%	0	2.9	8	-5%	-2.7%
CC(=O)N1CCC(C(=O)NC2CC(C)(C)Cc3c2cnn3-c2ccc(F)cc2)CC1 (stereo not given)	8%	14%	-6	.	1	-35%[inhibitor]	-3.2%
NC(N)=NS(=O)(=O)c1ccc(N=C2C(=O)Nc3ccccc32)cc1	-12%	12%	-42	3.5	13	9%	3.8%
O=C(O)c1cccc2c1C(=O)c1ccc(Cl)cc1S2(=O)=O	10%	.	-7	.	-12	.	0.6%
Cc1ccc2oc(=O)c3cnn(CC(=O)N4CCc5ccccc5C4)c3c2c1	-24%	-11%	-1	0.9	-2	-73%[inhibitor]	-0.2%

New compounds follow:
SMILES	gsp antagonist	Sfp PPTase inh	D2 potentiator	Menin-MLL FL inh	TRPV1 PAM	gsp agonist	ClpP mod
NNc1nc2c(F)cccc2s1	?	?	-14	6.7	?	-18%	-3.6%
COC(=O)/C=C1/N/C(=N\c2nc(C)cc(C)n2)N(c2ccc(C)c(C)c2)C1=O	-6%	-9%	-1	2.5	-5	-33%[inhibitor]	1.6%
COc1cccc(NC(=O)c2cnc(SC)nc2)c1	1%	1%	-2	-3.5	-10	-32%[inhibitor]	.
Cc1ccc(CNC(=O)COc2ccc(S(=O)(=O)N3CCCC3)cc2)cc1	15%	18%	0	-0.4	8	-45%	.
